Bioassay records from PubChem BioAssay.
PrP 5UTR inh – suppresses PrP 5' UTR mRNA reporter expression | hit rate 0.35% among 340,000 | inhibition, % (no concentration beside the values) | cell-based PrP 5' UTR mRNA reporter, plate reader;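 active = every replicate at 50% or more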;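 also: 0 = median of the neutral control wells; tested in H4 reporter cells; numbers are from one replicate; inactives centre near -14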
Autofluor counter – counter-screen for toxin protease inhibitors: compound fluorescence; fluorescence intensity (concentration not given with the values); hit rate 3.1% among 360,000; compound autofluorescence counterscreen, microsphere flow cytometry; active compounds read high;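 active = at least 3 SD above the mean of all compounds, about 16000 in these data; inconclusive = too few beads counted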;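 also: 100 nL of 1 mM stock went into each well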
ugtP null kill – kills S. aureus RN4220 lacking UgtP | S. aureus RN4220 ugtP deletion, OD600 growth, 16 h; some inactives read as strong as hits | growth inhibition, % (test concentration not listed) | hit rate 0.54% among 330,000;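 active = z-score under -3 and OD600 up to 0.15 on both plates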;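 also: plate controls were untreated wells for no effect and antibiotic for full effect; wells of about 80 µL received 100 nL stock; the first replicate is given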
Mtb hypoxia rep – inhibitors of hypoxia-regulated fluorescent reporter in Mycobacterium tuberculosis | fluorescence inhibition, % (test concentration not listed) | M. tuberculosis hypoxia-regulated fluorescent reporter, fluorescence | AID 1159583 | hit rate 0.1% among 300,000;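 active = 35 to 45% if threefold the growth effect, above 45% if 1.5-fold the growth effect; inactive = the rest, general growth blockers included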;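 also: wells of about 50 µL received 100 nL stock; 0% = vehicle wells and 100% = reference inhibitor wells; whole bacteria with a GFP reporter of the hypoxia response; strong numbers were not always called active; many hits fall short of the cut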
RN4220 kill – S. aureus RN4220 growth inhibition | OD600, 16 h | inhibition, % (no concentration beside the values) | hit rate 0.33% among 330,000 | AID 1259311;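 active = z-score of -3 or lower and OD600 up to 0.18 on both plates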;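 also: plate controls were untreated cells for no effect and reference antibiotic for full effect; stock transfer was 100 nL into about 80 µL; one replicate is shown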
BJeLR viability – BJeLR cell viability loss. AID 1554. inhibition, % (test concentration not listed). BJeLR (HRASV12) viability, CellTiter-Glo ATP luminescence, 48 h; reference of the scale not given here. hit rate 0.17% among 300,000;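 active = replicate mean above 50%; inconclusive = above 50% but judged a plate artefact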;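 also: 50 nL library stock added to about 25 µL; numbers are from one replicate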
Mtb hypoxia rep growth – further read-out of Mtb hypoxia rep, marked with its call; growth inhibition, %; measured here: M. tuberculosis growth (absorbance);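 0% = vehicle and 100% = reference antibiotic; read after six days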
* = called active by the depositor; ? = inconclusive; . = no result given.

canonical_smiles,PrP 5UTR inh,BJeLR viability,Autofluor counter,ugtP null kill,Mtb hypoxia rep growth,Mtb hypoxia rep,RN4220 kill
Cn1cnnc1SCC(=O)Nc1c(F)cc(F)cc1Br,-4,2,3517,-1,1,3,6.0
CC(=O)Nc1ccc(OC/C=C(\C)Cl)cc1,-31,0,13098,3,7,9,0.7
Cc1ccc(-c2nc3ccccc3c(=O)n2-c2nccs2)cc1,-26,11,10722,12,-1,13,1.9
COc1ccccc1C=NNC(=O)CC(=O)NCc1ccccc1,.,.,.,2,0,5,4.0
S=c1nc[nH]c2c1[nH]c1ccccc12,-24,-2,2621,-11,.,.,6.0
N#Cc1c(N=Cc2cc(Br)cs2)sc2c1CCC2,.,.,.,0,1,0,8.3
COc1ccc(CCN(C(=O)C(F)(F)F)C(C(=O)NC2CCCCC2)c2ccc(C)s2)cc1 (stereo unspecified),-11,5,7971,18,3,9,10
Cc1nn(-c2ccccc2)nc1C(=O)OCC(=O)N1CCC(C)CC1,-20,.,8709,4,-2,5,3.2

Following part:
canonical_smiles,PrP 5UTR inh,BJeLR viability,Autofluor counter,ugtP null kill,Mtb hypoxia rep growth,Mtb hypoxia rep,RN4220 kill
COc1ccc(C(=O)OC2CCCCC2CN(C)C)cc1 (stereo unspecified),29,-4,3697,3,-6,-9,2.6
O=C(NC(=O)N1CCCCCC1)c1ccc(Cl)cc1,-25,0,6058,0,3,19,1.3
CNC(=O)CNC(=O)Nc1ccc(Cl)c(Cl)c1,-21,5,4773,-7,12,5,2.5
COc1ccc(NC2CCCN(C(=O)c3ccc4[nH]c(C)c(C)c4c3)C2)cc1 (stereo unspecified),-11,-6,5232,-2,4,15,3.1
CCCS(=O)(=O)N1CCCC(C(=O)NCCN(Cc2ccccc2)C(C)C)C1 (stereo unspecified),-8,-10,3354,-5,13,6,2.4
CCC(Sc1nc(N)cc(N)n1)C(=O)O (stereo unspecified),-10,-5,9991,-5,8,4,-2.5
Cc1ccc(OCCOC(=O)c2c(-c3ccccc3)noc2C)cc1,-17,1,5631,15,.,.,-0.9
Cc1cccc(C2=NN(c3ccc(Br)cc3)[C@@H](C(=O)N3CCOC3=O)[C@@H]2c2ccc(F)cc2)c1,-22,9,3610,.,.,.,.

The results go on:
canonical_smiles,PrP 5UTR inh,BJeLR viability,Autofluor counter,ugtP null kill,Mtb hypoxia rep growth,Mtb hypoxia rep,RN4220 kill
O=C(Cn1nc(-c2ccccc2)ccc1=O)Nc1cccc(NC(=O)c2ccccn2)c1,.,-4,.,3,2,8,-5.5
Cc1cc(C)c(S(=O)(=O)N2CCN(C(=O)CCOc3ccccc3C)CC2)c(C)c1,88*,.,?,0,3,2,-1.4
COC(=O)C1=C(COc2ccccc2)NC(=O)NC1c1ccc2ccccc2c1 (stereo unspecified),.,7,.,-2,1,1,-0.8
COCCn1c(=NC(=O)c2sc3ccccc3c2Cl)sc2cc(S(N)(=O)=O)ccc21,-18,-5,1980,.,.,.,.
Cc1ccc(-c2csc(NC(=O)CCNC(=O)c3ccc(Cl)cc3)n2)cc1,-35,-1,4325,-2,-10,-5,1.9
Cc1ccc(-c2noc(CCC(=O)Nc3cccc(C#N)c3)n2)cc1,-12,-5,4462,1,.,.,-2.2
O=C(c1ccc(Cl)cc1)N1CCOc2ccccc21,-18,9,3079,2,2,6,-0.5
CS(=O)(=O)N(Cc1ccccc1Cl)c1ccc(C(=O)N2CCCC2)cc1,-13,-29,3842,1,0,-1,2.6

(further entries)
canonical_smiles,PrP 5UTR inh,BJeLR viability,Autofluor counter,ugtP null kill,Mtb hypoxia rep growth,Mtb hypoxia rep,RN4220 kill
OCCN(CCO)c1ccc(C(c2ccccc2Cl)c2ccc(N(CCO)CCO)cc2Cl)c(Cl)c1,-16,-3,10064,-7,0,7,25
CN1c2ccccc2Oc2nnc(N3CCN(Cc4ccccc4)CC3)cc21,-82,5,4359,21,7,6,6.4
O=C(CNS(=O)(=O)c1ccc(Cl)cc1)N1CCN(c2ccc(F)cc2)CC1,-24,.,5545,4,2,6,2.4
Cc1ccc(S(=O)(=O)CC(=O)Nc2ccc3nc(C)sc3c2)cc1,-9,-11,4856,-1,3,2,2.1
C=CCn1c(O)c(N=Nc2ccccc2C)c2ccccc21,.,4,.,0,3,-3,-0.4
O=C1CN=C(c2cccs2)c2c(sc3c2CCCC3)N1,-23,-2,10334,-4,11,6,-2.9
CCCOc1ccc(Cc2c(COCC)[nH]c(=S)[nH]c2=O)cc1,-30,.,4725,-4,3,12,2.4
Cc1ccc(NC(=O)CSc2nnc(NC(=O)C3CC3)s2)cc1,-17,-6,6119,5,5,11,6.3

Later entries.
canonical_smiles,PrP 5UTR inh,BJeLR viability,Autofluor counter,ugtP null kill,Mtb hypoxia rep growth,Mtb hypoxia rep,RN4220 kill
CC(C)CC(=O)N1CCN(Cc2cccc(F)c2)CC1,-2,-1,3123,1,6,23,-9.3
Clc1ccc(CSc2nnc(Cn3cnc4ccccc43)o2)cc1,-11,13,3241,-5,13,2,4.3
Cc1cccc(NC(=S)N2CCN(C(=O)C3CCCO3)CC2)c1 (stereo unspecified),-11,-1,2148,9,1,4,1.6
COc1ccccc1N1CCN(c2ncc(C(=O)N3CCN(c4cccc(Cl)c4)CC3)c3ccccc23)CC1,-14,8,4282,-16,-1,6,20
COc1ccc(CCn2c(O)cc3nn(-c4nc5ccccc5s4)c(=O)c-3c2C)cc1,-87,11,4579,-14,1,-4,27
CCOC(=O)C1(Cc2ccccc2C)CCCN(C(=O)c2ccccn2)C1 (stereo unspecified),-34,-1,4875,-2,0,4,2.2
COc1ccccc1CC(=O)Nc1sc2c(c1C(N)=O)CCCC2,4,-7,4432,-6,4,-7,-3.4
Cc1ccc(/C=C2\SC(=S)N(/N=C/c3cc([N+](=O)[O-])ccc3O)C2=O)o1,-8,-5,2725,.,.,.,.

(more compounds)
canonical_smiles,PrP 5UTR inh,BJeLR viability,Autofluor counter,ugtP null kill,Mtb hypoxia rep growth,Mtb hypoxia rep,RN4220 kill
Cc1onc(-c2ccccc2)c1C(=O)NCC1COc2ccccc2O1 (stereo unspecified),-17,1,5958,3,.,.,18
COc1cccc(COC(=O)c2cc(=O)[nH]c3ccc(S(=O)(=O)N4CCOCC4)cc23)c1OC,-5,-6,4577,5,-5,-1,3.7
Cc1cc2cc(CNC(=O)C3CCCC3)ccc2n1C,-31,1,3369,0,13,5,-7.1
CCCOCC1CC(CCc2nc(=S)[nH][nH]2)C(=O)O1 (stereo unspecified),-39,-12,9258,4,0,3,2.7
O=C(NN=C1CCC(c2ccccc2)CC1)c1ccccc1-n1cccc1 (stereo unspecified),-46,-2,2061,3,-1,-3,-0.7
O=C1Nc2ccccc2N(O)N1c1ccc(S(=O)(=O)Nc2ccccn2)cc1,-14,-3,3218,7,-2,5,-2.0
COc1cc2c(cc1OC)CN(Cc1ccc(F)cc1)CC2,-10,1,3621,5,-1,4,4.2
O=C(c1cc2ccccc2oc1=O)N(Cc1cccs1)CC1CCCO1 (stereo unspecified),-19,3,2037,4,5,10,-1.2

(listing goes on)
canonical_smiles,PrP 5UTR inh,BJeLR viability,Autofluor counter,ugtP null kill,Mtb hypoxia rep growth,Mtb hypoxia rep,RN4220 kill
O=C(COC(=O)[C@H](Cc1c[nH]c2ccccc12)NC(=O)c1ccc(Cl)cc1)Nc1ccc2c(c1)OCO2,-25,2,21349*,-27,7,-1,-3.3
COC(=O)CN1C(=O)C(O)=C(C(C)=O)C1c1ccc([N+](=O)[O-])cc1 (stereo unspecified),-28,-4,5449,-3,-8,1,-2.6
Cc1nn(C)c(Oc2ccccc2)c1CCNC(=O)CC(C)C,-11,8,2522,9,12,14,8.2
CCC(C)[C@@H](N)C(=O)NN=Cc1cccc2nccnc12 (stereo partly specified),.,.,.,5,0,-6,2.8
CC(C)NC(=O)NC(=O)COC(=O)c1cccc(S(=O)(=O)N2CCCCC2)c1,-3,-12,2373,0,3,1,-4.3
Cc1ccc(OCCC(=O)Nc2ccc(C)c(S(=O)(=O)N3CCOCC3)c2)cc1,.,.,6760,4,10,9,4.6
CC(=O)NCCOc1ccc2oc3ccccc3c2c1,-19,9,4181,3,.,.,1.1
Nc1cccc2c1C(=O)N(C(=O)/C=C/c1ccc(F)cc1)C2=O,15,0,3419,3,-4,2,3.1

Other results.
canonical_smiles,PrP 5UTR inh,BJeLR viability,Autofluor counter,ugtP null kill,Mtb hypoxia rep growth,Mtb hypoxia rep,RN4220 kill
Cc1nc(SCC(=O)N(C)C2CCS(=O)(=O)C2)c(C#N)c(C)c1C (stereo unspecified),-5,.,2893,3,5,-1,0.3
COc1ccc(NC2c3ncccc3C(=O)N2Cc2ccccc2)c(OC)c1 (stereo unspecified),.,-3,8556,5,5,7,2.1
O=C(COC(=O)c1cc(-c2ccccc2)nc2ccccc12)NC1CC1,5,.,2912,11,-4,-11,7.5
CCOc1ccccc1C(=O)N(C)Cc1cc2ccccc2[nH]c1=O,-10,2,6411,2,.,.,-2.3
O=C(NCc1cccc(Cl)c1)c1ccc(-c2csnn2)cc1,-24,-2,.,0,18,6,-1.1
CC(C)(C)c1cc(C(F)(F)F)n2ncc(-c3ccccc3)c2n1,-31,8,4866,83,3,4,-4.6
O=C(Nc1csc(Cc2c(Cl)cccc2Cl)n1)NN1CCOCC1,-7,9,3469,-2,5,0,3.5
Cc1cccc2nc(-c3ccco3)c(Nc3ccccc3)n12,-29,6,4779,5,3,8,1.4

Continued (5 carried over from the part before).
canonical_smiles,PrP 5UTR inh,BJeLR viability,Autofluor counter,ugtP null kill,Mtb hypoxia rep growth,Mtb hypoxia rep,RN4220 kill
CCOc1ccccc1C(=O)N(C)Cc1cc2ccccc2[nH]c1=O,-10,2,6411,2,.,.,-2.3
O=C(NCc1cccc(Cl)c1)c1ccc(-c2csnn2)cc1,-24,-2,.,0,18,6,-1.1
CC(C)(C)c1cc(C(F)(F)F)n2ncc(-c3ccccc3)c2n1,-31,8,4866,83,3,4,-4.6
O=C(Nc1csc(Cc2c(Cl)cccc2Cl)n1)NN1CCOCC1,-7,9,3469,-2,5,0,3.5
Cc1cccc2nc(-c3ccco3)c(Nc3ccccc3)n12,-29,6,4779,5,3,8,1.4
CCN(CC(=O)Nc1ccccc1OC)C(=O)/C=C/c1cccs1,-25,-10,?,-2,3,4,1.7
c1ccc(-c2noc(C3CCC3)n2)nc1,.,9,2967,2,-4,-7,3.6
Cc1ccnc(NC(=O)c2cc(-c3ccc(Cl)s3)nc3ccccc23)c1,-19,-2,?,-10,-3,6,-6.0
N#CC(C#N)=C/C(C#N)=C(/N)N1CCN(c2ccc(Cl)cc2)CC1,-23,0,7719,16,3,6,8.6
O=C(N/C(=C\c1ccccc1)C(=O)N1CCN(CCO)CC1)c1ccccc1,-9,-4,2860,6,0,-1,4.3
CCN1CCSc2ccc(C(=O)NCc3ccccc3C)cc21,-21,-7,5838,-6,-1,4,-16
CCC(C)NC(=O)CN(c1cc(C)ccc1OC)S(C)(=O)=O (stereo unspecified),-14,-13,6818,12,7,11,3.7
CCOc1ccc(N(C)S(=O)(=O)c2ccc(C)c(C(=O)Nc3nnc(C4CC4)s3)c2)cc1,-8,.,8626,-9,5,3,3.0
CC1Sc2ccc(S(=O)(=O)N3CCC(C(=O)N4CCN(C)CC4)CC3)cc2NC1=O (stereo unspecified),9,-3,4298,11,1,13,4.4
CCCOc1ccc(C2=NNC(c3cccs3)=Nc3ccc(OC)cc32)cc1,-11,-8,3680,-7,7,8,1.4
